# High-throughput results: PubChem, National Center for Advancing Translational Sciences (NCATS)
# StopGo reporter – High Throughput Screening for Foot and Mouth Disease Virus Antivirals | human cells with a luciferase reporter of 2A StopGo recoding; control for the full effect not named in the record | Potency, µM (highest dose often 57.9 µM), without a hit: at the highest dose signal change, negative = less light | 1.2% of 410,000 active; active = well fitted falling curve with a large enough effect; inconclusive = small, poorly fitted or top-dose-only effect; inactive = no such curve, though single readings can be large or run the other way; tested in HEK293T cells; also: nearly all actives have a fitted effect of over 45% in size; luciferase light after 4 h
# * = called active by the depositor; ? = inconclusive; [ ] = another dose, or the depositor's remark. % is scaled to controls: 0 for no effect and ±100 for the full control effect; potency is read from the fitted curve at half-maximal effect. The list is partial. The share of hits here may be higher or lower than overall.
SMILES,StopGo reporter
O=C(c1ccc2c(c1)OCO2)N1CCOc2ccc(CN3CCC(Oc4cccnc4)CC3)cc2C1,-13%
CC(=O)c1ccc(N2CCN(S(=O)(=O)c3ccc4c(c3)C(Cl)(Cl)C(=O)N4)CC2)cc1,?
COc1cccc2c1CCCC2CCCN1CCN(C2CCCCC2)CC1 (stereo not drawn),?
O=S(=O)(O)c1ccc(Nc2ncnc3c2ncn3[C@@H]2O[C@H](CO)[C@@H](O)[C@H]2O)cc1,-14%
Cc1cnc(-n2ncc(C(=O)NCC(C)(C)N3CCOCC3)c2C(C)C)nc1-c1ccc(F)cc1,3%
Cc1cc(C(=O)Nc2ccccc2-c2nc(CNC(=O)c3ccc(F)cc3F)c(C)o2)c(C)o1,-2%
OC1(c2cccnc2)CCN(Cc2ccc3c(c2)CN(Cc2ccc(F)c(F)c2)CCO3)CC1,-23%
COc1cc(OC)c(OC)cc1CN1CCC(n2cc(C(=O)N3CCCCC3)nn2)CC1,-9%
CN(C)CCc1c[nH]c2ccc(C[C@H]3COC(=O)N3)cc12,28%
COc1ccccc1C(=O)N1CCCC(c2nc(SCCN3CCOCC3)ncc2C)C1 (stereo not drawn),-2%
COc1ccc(F)c(CN2CCOc3ccc(CN4CCC(O)(c5cccnc5)CC4)cc3C2)c1,-14%
COC(=O)C1CCN(Cc2ccc3c(c2)CN(C(=O)c2cc(-c4ccc(C)o4)[nH]n2)CCO3)CC1,-8%
c1cncc(OC2CCN(Cc3ccc4c(c3)CN(Cc3ccc5c(c3)OCO5)CCO4)CC2)c1,?
COc1ccccc1C(=O)N[C@@H]1c2ccccc2C2(CCN(C(=O)c3ccnn3C)CC2)[C@H]1OC,10%
O=C(NCc1nnc2n1CCN(C(=O)/C=C/c1ccccc1)CC2)c1cccc(F)c1,5%
COc1cc(=O)n2c(c1C(=O)N(C)Cc1ccsc1)CCN(Cc1c(C)nc3sccn13)CC2,-9%
CCC1(C2CCN(C(=O)c3cc(F)ccc3F)CC2)NC(=O)N(CCc2scnc2C)C1=O (stereo not drawn),-3%
Cc1cccc(C(C)c2cnc[nH]2)c1C (stereo not drawn),-11%
COc1ccc(C2(c3cccc(O)c3OC)CCN(C(C)=O)CC2)cc1O,0%
O=C(NCc1nnc2n1CCN(Cc1ccc(C(F)(F)F)cc1)CC2)c1ccccn1,-17%
CCC1CN(CCNC(=O)c2cc3ccccc3oc2=O)Cc2cc(OC)ccc2O1 (stereo not drawn),-1%
COc1cccc(CN2CCC3(CCC(CNC(=O)c4ccccc4)O3)CC2)c1 (stereo not drawn),?
COc1cc(=O)n2c(c1C(=O)NCc1nonc1C)CCN(Cc1c[nH]c3ccccc13)CC2,-5%
CC1=C2CC3C(CC=C4C[C@@H](O)CC[C@@]43C)[C@@H]2CC[C@]12O[C@@H]1C[C@H](C)CN[C@H]1[C@H]2C (stereo partly drawn),-3%
CC(Oc1ccccc1)C(=O)NCC1Cc2cc(F)cc(-c3ccccn3)c2O1 (stereo not drawn),-13%
CN1CCCCCC1C(=O)NCC1Cc2cc(-c3cnccn3)ccc2O1 (stereo not drawn),10%
COc1cc(F)c(C(=O)NC(C)(C)CO)cc1OC,2%
Cc1ccc(C(=O)Nc2cccc(-c3nc(CNC(=O)c4ccc5ccccc5n4)c(C)o3)c2)s1,25%
COc1ccccc1C(=O)N[C@@H]1c2ccccc2C2(CCN(Cc3ccc(C)o3)CC2)[C@H]1O,-4%
O=C(NCC1CCC2(CCN(Cc3cccc(-c4ccco4)c3)CC2)O1)c1ccccc1 (stereo not drawn),-5%
CC(C)C[C@H](NC(=O)[C@H](CCCCN)NC(=O)[C@H](CCCNC(=N)N)NC(=O)[C@H](C)NC(=O)[C@H](CO)NC(=O)[C@H](CCCCN)NC(=O)[C@H](CCCNC(=N)N)NC(=O)[C@H](C)NC(=O)CNC(=O)[C@@H](NC(=O)[C@H](Cc1ccccc1)NC(=O)CNC(=O)CNC(=O)[C@@H](N)Cc1ccccc1)[C@H](C)O)C(=O)N[C@@H](C)C(=O)N[C@@H](CC(N)=O)C(=O)N[C@@H](CCC(N)=O)C(=O)O,8%[6.7 µM]
COc1ccc(-n2c(CNC(=O)c3ccc(OC)cc3OC)nnc2SC)cc1,8%
CC(CCc1ccc(O)cc1)N1CCOc2c(O)cc(-c3nc4ccccc4s3)cc2C1 (stereo not drawn),-8%
O=C(c1ccc2c(c1)OCO2)N(Cc1cc2cc3c(cc2nc1N1CCOCC1)CCC3)CC1CCCO1 (stereo not drawn),1%
Cc1c2oc3c(C)ccc(C(=O)NC4C(=O)NC(C(C)C)C(=O)N5CCCC5C(=O)N(C)CC(=O)N(C)C(C(C)C)C(=O)OC4C)c3nc-2c(C(=O)NC2C(=O)NC(C(C)C)C(=O)N3CCCC3C(=O)N(C)CC(=O)N(C)C(C(C)C)C(=O)OC2C)c(N)c1=O (stereo not drawn),-6%[27 µM]
COc1cccc(C(=O)N(Cc2cc3ccc(C)cc3nc2N(C)C)C2CC2)c1OC,-11%
O=C(CN1Cc2ccccc2OC(c2ccsc2)C1)NCC1OCCc2ccccc21 (stereo not drawn),0%
Cc1cccc(CNCCn2cc(C(=O)Nc3ccccc3)nn2)c1,10%
COc1ccccc1C1CN(Cc2cnn(C)c2)Cc2ccccc2O1 (stereo not drawn),2%
COc1ccc(F)c(CN2CCOc3ccc(CN4CCCCC4CO)cc3C2)c1 (stereo not drawn),0%

# Brought forward from above: 4 entries; new compounds follow.
SMILES,StopGo reporter
O=C(CN1Cc2ccccc2OC(c2ccsc2)C1)NCC1OCCc2ccccc21 (stereo not drawn),0%
Cc1cccc(CNCCn2cc(C(=O)Nc3ccccc3)nn2)c1,10%
COc1ccccc1C1CN(Cc2cnn(C)c2)Cc2ccccc2O1 (stereo not drawn),2%
COc1ccc(F)c(CN2CCOc3ccc(CN4CCCCC4CO)cc3C2)c1 (stereo not drawn),0%
CCOC(=O)N1CCN(Cc2ccc3c(c2)CN(C(=O)c2noc4c2CCCC4)CCO3)CC1,?
O=C(NCC1Cc2cc(F)cc(-c3cnccn3)c2O1)c1cccc(Cl)c1 (stereo not drawn),-12%
Cn1cnnc1Sc1ccc(CN2CCOc3ccc(C4=Cc5ccccc5CC4)cc3C2)o1,20%
CCn1c(-c2ccccc2F)nc2cc(NC(C)=O)cc(C(=O)N(C)Cc3ccccn3)c21,-12%
Cc1cc(C)n(-c2cccc(C(=O)NCC3Cc4cccc(-c5ccccn5)c4O3)c2)n1 (stereo not drawn),-28%
CCN1C[C@]2(COC(=O)c3ccccc3N3C(=O)CC(C)C3=O)CC[C@H](OC)[C@@]34C5C[C@@H]6[C@@H](OC)C[C@@](O)(C5[C@H]6OC)[C@](O)([C@@H](OC)C23)[C@@H]14 (stereo partly drawn),-1%
CCc1nc2cc(C(=O)N3CCC[C@H]3CO)cc(NC(=O)c3ccccc3OC)c2n1C,3%
COc1ccccc1C1CN(CCNC(=O)c2cnsn2)Cc2ccccc2O1 (stereo not drawn),9%
CC(C)c1c(C(=O)NC(c2cccnc2)C(F)(F)F)cnn1-c1nccc(-c2cccs2)n1 (stereo not drawn),?
OC1CCN(Cc2ccc3c(c2)CN(Cc2ccc(Oc4ncccn4)cc2)CCO3)CC1,-6%
COc1cc(=O)n2c(c1C(=O)NC(C)c1ccco1)CCN(CC=C(C)C)CC2 (stereo not drawn),9%
Cc1oc(-c2ccccc2NS(C)(=O)=O)nc1CN(C)Cc1ccc(Cl)cc1,0%
Cn1c(=O)c(N=O)c(N)n(Cc2ccccc2)c1=S,?
CN1CCCCC1c1cccnc1 (stereo not drawn),-9%
CC(=O)c1ccc(-c2cc(F)cc3c2OC(CNC(=O)c2ccc[n+]([O-])c2)C3)s1 (stereo not drawn),0%
Oc1cc(-c2cccs2)cc2c1OCCN(Cc1cn[nH]c1-c1ccc(Cl)cc1)C2,1%
COc1cccc(C(=O)NCC2Cc3cccc(-c4nc(C)cnc4C)c3O2)c1OC (stereo not drawn),-3%
CC(=O)NC1C(OC2OC(CC(O)C3OC([N+]4=CCC(=O)NC4=O)C(O)C3O)C(O)C(O)C2NC(=O)/C=C/CCCCCCCCC(C)C)OC(CO)C(O)C1O (stereo not drawn),-19%[39.8 µM]
COc1cccc(C(=O)NCC2Cc3c(F)ccc(-c4ncccn4)c3O2)c1OC (stereo not drawn),-10%
O=C(NCCN1Cc2ccccc2OC(c2ccccc2F)C1)c1cncs1 (stereo not drawn),-4%
COc1cc(OC)c(OC)cc1CN1CCCC(n2cc(C(=O)N3CCCCC3)nn2)C1 (stereo not drawn),-6%
COc1cccc(CN2CCOc3ccc(C(O)c4cccnc4)cc3C2)c1 (stereo not drawn),-10%
O=C([C@@H]1C[C@@H](Sc2nc3ccccc3[nH]2)CN1Cc1c(F)cccc1F)N1CCOCC1,-14%
Cc1cc2c(c(-c3ccc(Cl)cc3)c1)OC(CNC(=O)Cc1c(C)noc1C)C2 (stereo not drawn),-13%
COc1cc(-c2ccc(C)cc2)cc2c1OCCN(C(=O)CCn1ccc(C)n1)C2,-16%
Cc1nc2ccccc2nc1CN1CCOc2ccc(CN3CCc4sccc4C3)cc2C1,-8%
Cc1nc2c(c(=O)[nH]1)CSCC2,-11%
Cc1ccc(-c2ccc(C(=O)N3CCc4nnc(CNC(=O)c5ccccc5)n4CC3)cc2)cc1,10%
Cc1ccc(CN2CCOc3ccc(CN4CCC(O)(c5cccnc5)CC4)cc3C2)cc1,?
c1ncc(CCCC2CCNCC2)[nH]1,-8%
O=C(C1CC12CCN(Cc1cccc3cccnc13)CC2)N1CCN(Cc2cccs2)CC1 (stereo not drawn),-9%
CCCCNC(=O)c1sc2ncnc(NCC3CCCO3)c2c1C (stereo not drawn),1%
COc1ccccc1C1(O)CCN(CCCn2c3ccccc3c3ccccc32)CC1,?
COc1cccc(C(=O)N2CCc3c(C(=O)NC(C)c4ccco4)c(OC)cc(=O)n3CC2)c1OC (stereo not drawn),23%
COc1ccc(C(=O)NCC2Cc3cc(C)cc(-c4cc(C(C)=O)ccc4F)c3O2)c(OC)c1OC (stereo not drawn),-18%
CCC(=O)NC1Cc2ccccc2C(c2ccccc2)C1 (stereo not drawn),-8%
COC(=O)C1CCCCN1Cc1ccc2c(c1)CN(Cc1cc(OC)c3c(c1)OCO3)CCO2 (stereo not drawn),-18%
CN(C)CC(C)(O)c1ccc2c(c1)CN(Cc1cnn(-c3ccccc3)c1)CCO2 (stereo not drawn),-7%
O=C(c1cccnc1)C1CCCN(Cc2ccc3c(c2)CN(C(=O)c2cn4ccccc4n2)CCO3)C1 (stereo not drawn),-12%
O=C(c1cncs1)N(Cc1cc2cc3c(cc2nc1N1CCOCC1)CCC3)CC1CCCO1 (stereo not drawn),11%
COC(=O)C1CCN(c2nc(CN(C)C3CCOC3)nc3cc(OC)c(OC)cc23)CC1 (stereo not drawn),-3%
COc1ccc2c(c1)OC(C)CN(CCNC(=O)c1ccc(-n3cccn3)cc1)C2 (stereo not drawn),0%
Oc1cccc2cc(Nc3ccccc3)cnc12,2%
COCc1c(C(=O)N2CCC(N3CCCCC3)CC2)cnn1-c1ncc(C)c(-c2cccs2)n1,-14%
O=C(O)C(Cc1ccc2c(c1)oc1ccccc12)NCP(=O)(O)O (stereo not drawn),6%
CCc1ccc(S(=O)(=O)NCc2nc(N3CCCC3)c3cccc(C)c3n2)cc1,9%
Cc1c(C(=O)N(C)C2CCOC2)cnn1-c1ncc2c(n1)-c1ccccc1CCC2 (stereo not drawn),46%[activator]
CSc1ncccc1C(=O)N1CCc2nnc(C(NC(=O)c3ccoc3)C(C)C)n2CC1 (stereo not drawn),-12%
COc1ccccc1C1CN(Cc2ccc(Sc3nncn3C)o2)Cc2ccccc2O1 (stereo not drawn),-3%
CCCOC(=O)c1cc2c(cn1)[nH]c1ccccc12,-17%
COc1ccc(CN2CCCC(Cn3cc(C(=O)N4CCCC4)nn3)C2)c(O)c1 (stereo not drawn),-12%
Cc1cc(CNC(=O)c2cnn(-c3ncc4c(n3)-c3ccccc3CC4)c2C2CC2)on1,25%
COC(=O)C1CCCCN1Cc1nc(N(C)C)c2ccccc2n1 (stereo not drawn),-3%
COc1cccc(OC)c1-c1cc(C(=O)NC2(C(=O)O)C3CC4CC(C3)CC2C4)nn1-c1ccc(C(=O)N(C)CCCN(C)C)cc1C(C)C (stereo not drawn),-10%
Cc1noc(C)c1-c1ccc2nc[nH]c(=O)c2c1,8%
CCCN(C/C=C/I)C1CCc2cccc(O)c2C1 (stereo not drawn),-14%
Cc1cnc(C)c(-c2cccc3c2OC(CNC(=O)C[C@@H]2C[C@@H](C)NC(=S)N2)C3)n1 (stereo partly drawn),-5%
COCC(=O)Nc1cc(C(=O)NC2CCc3ccccc32)c2c(c1)nc(-c1ccncc1)n2C (stereo not drawn),-16%
COc1ccccc1CN1CCC(n2cc(C(=O)N3CCCCC3)nn2)CC1,-11%

# Molecules above containing a furan ring, fused or not, in the order listed:
SMILES,StopGo reporter
Cc1cc(C(=O)Nc2ccccc2-c2nc(CNC(=O)c3ccc(F)cc3F)c(C)o2)c(C)o1,-2%
COC(=O)C1CCN(Cc2ccc3c(c2)CN(C(=O)c2cc(-c4ccc(C)o4)[nH]n2)CCO3)CC1,-8%
COc1ccccc1C(=O)N[C@@H]1c2ccccc2C2(CCN(Cc3ccc(C)o3)CC2)[C@H]1O,-4%
O=C(NCC1CCC2(CCN(Cc3cccc(-c4ccco4)c3)CC2)O1)c1ccccc1 (stereo not drawn),-5%
Cn1cnnc1Sc1ccc(CN2CCOc3ccc(C4=Cc5ccccc5CC4)cc3C2)o1,20%
COc1cc(=O)n2c(c1C(=O)NC(C)c1ccco1)CCN(CC=C(C)C)CC2 (stereo not drawn),9%
COc1cccc(C(=O)N2CCc3c(C(=O)NC(C)c4ccco4)c(OC)cc(=O)n3CC2)c1OC (stereo not drawn),23%
O=C(O)C(Cc1ccc2c(c1)oc1ccccc12)NCP(=O)(O)O (stereo not drawn),6%
CSc1ncccc1C(=O)N1CCc2nnc(C(NC(=O)c3ccoc3)C(C)C)n2CC1 (stereo not drawn),-12%
COc1ccccc1C1CN(Cc2ccc(Sc3nncn3C)o2)Cc2ccccc2O1 (stereo not drawn),-3%
